Screening data from PubChem BioAssay.
VACV mCherry inh: qHTS for Stage-Specific Inhibitors of Vaccinia Orthopoxvirus: mCherry Reporter Primary qHTS | Vaccinia virus mCherry reporter infection, fluorescence; about a quarter of the inactives have no number | hit rate 0.63% among 310,000 | Potency, µM (series often up to 36.5 µM), for inactives: at the highest dose activity change, negative = inhibition, usual class: inhibitors; active = well fitted inhibition curve with a large enough effect; inconclusive = small, poorly fitted or top-dose-only effect; inactive = no such curve, though single readings can be large or run the other way; tested in A549 cells; further: nearly all actives have a fitted effect of over 35% in size; inactives centre near -10
VACV Venus inh: qHTS for Stage-Specific Inhibitors of Vaccinia Orthopoxvirus: Venus Reporter Primary qHTS | Vaccinia virus Venus reporter expression, fluorescence | hit rate 0.46% among 330,000 | Potency, µM (highest dose often 36.5 µM), inactives show top-dose activity change, negative = inhibition, actives largely listed as inhibitors; active means well fitted inhibition curve with a large enough effect; inconclusive means small, poorly fitted or top-dose-only effect; inactive means no such curve, though single readings can be large or run the other way; tested in A549 cells; further: nearly all actives have a fitted effect of over 30% in size; inactives centre near -10
The depositor's hits bear a star; i = inactive; ? = inconclusive; . = no result given; & = joins results of further samples; [ ] = dose if it differs, or a comment. On the % scale 0 is the no-effect control and ±100 the full control effect; potency means the concentration at half of the fitted maximal effect.

smiles | VACV Venus inh | VACV mCherry inh
O=C(NCCCN1CCN(c2ccc(F)cc2)CC1)C1CCCN(c2ncnc3c2nc2n3CCCCC2)C1 (centres undefined) | -19% | -15%
CC(=O)N1c2ccc(S(=O)(=O)N3CCCC(C(=O)N4CCCCC4)C3)cc2CC1C (centres undefined) | -18% | -27%
Cc1ccc(OCC(=O)Nc2ccc(C(=O)O)cc2NC(=O)COc2ccc(C)c(C)c2)cc1C | -5% | i
Cc1ccc(N2CN(Cc3cccnc3)CNC2=S)cc1 | -10% | i
CN(C)CCN(C(=O)c1ccc(N2C(=O)CCC2=O)cc1)c1nc2cc3c(cc2s1)OCO3 | 0% | -19%
Cc1nnc(NC(=O)CSc2nnc(CNC(=O)c3ccc(F)cc3)o2)s1 | -11% | -21%
CSc1ccc(CCNS(=O)(=O)c2cc(-c3cc(C)no3)ccc2C)cc1 | -5% | -17%
Cc1ccc(C(=O)N/C(=C/c2cccs2)C(=O)NCCc2c[nH]c3ccccc23)cc1 | -26% | -7%
CN(C(=O)c1cc2n(n1)C(C(F)(F)F)CC(c1ccco1)N2)c1ccccc1 (centres undefined) | -10% | .
CC1CCN(C(=S)NC(=O)c2cccs2)CC1 | -5% | -26%
CC1(C)CC(=O)C=C(Nc2ccc(F)cc2F)C1 | -6% | .
COc1ccccc1-n1c(SCC(N)=O)nc2c(c1=O)SCC2 | -5% | -12%
Nc1nc2c(Cl)ccc(Cl)c2s1 | -5% | -2%
CC(=O)Nc1ccc(S(=O)(=O)NC2(C(F)(F)F)NC(=O)N(c3ccc(C)cc3)C2=O)cc1 (centres undefined) | -12%&0% | -7%&-11%
CCCCCCCC1c2c(c(C)c(C)oc2=O)Oc2c(C)c(C)oc(=O)c21 | ? | ?
N#CCCN(NC(=O)OCc1ccccc1)C(=O)OCc1ccccc1 | -3% | -16%
Cc1cc(C(F)(F)F)nn1CC(=O)NCc1cccs1 | -7% | -14%
CCc1ccc(NC(=S)NC2CCN(Cc3ccccc3)CC2)cc1 | ? | ?
CC(C)C[C@H](NC(=O)[C@H](Cc1ccccc1)NC(=O)CNC(=O)[C@@H](NC(=O)[C@@H](N)Cc1ccc(O)cc1)[C@H](C)O)C(=O)N[C@H](C(=O)O)[C@H](C)O | -8%[3.33 µM] | 0%[3.33 µM]
COC(=O)C1=C(c2ccc3ccccc3c2)C[C@@H]2CC[C@H]1N2C(=O)N1CCC(O)CC1 | -10% | i
COCCNC(=O)CN(c1ccc(C)cc1)S(=O)(=O)c1ccc(SC)cc1 | -9% | .
Cc1nc(-c2ccccc2)sc1C(=O)CSc1ccccc1 | -6% | .
COc1cc2c(cc1OC)CN(CC(=O)Nc1cccc(C(F)(F)F)c1)CC2 | -8% | -10%
CCOC(=O)c1cnn(-c2nc3c(C)cccc3s2)c1C(F)(F)F | -5% | .
Nc1ccccc1C(=O)/C=C/c1ccc2c(c1)OCO2 | ? | ?
CCOc1ccccc1-c1cc(C(=O)N/N=C/c2ccc3c(c2)OCO3)c2ccccc2n1 | 4% | -14%
COc1ccc(CNC(=O)[C@@H](NC(=O)C2CCN(C(=O)[C@@H](N)Cc3ccccc3)CC2)C(C)C)cc1 | -4% | -1%
COC(=O)C1=C(C)NC(C)=C(C(=O)OC)C1C(=O)OCC(=O)N1c2ccccc2CC1C (centres undefined) | -12%&-3% | -29%&-17%
O=C1c2ccccc2S(=O)(=O)c2cc(N3CCN(c4ccccn4)CC3)ccc21 | 9% | 4%
COCCN(CCOC)C(=O)c1c[nH]c2ccc(S(=O)(=O)N(C)c3ccc(F)cc3)cc2c1=O | -14% | i
Cc1ccc(S(=O)(=O)N2CCOC23CCN(S(=O)(=O)c2cccs2)CC3)cc1 | -19% | i
O=S(=O)(NCCc1ccccc1)c1cccc2cccnc12 | -12% | ?
CN(c1ccc(C(=O)Nc2cccc([N+](=O)[O-])c2)cc1)S(C)(=O)=O | -13% | -15%
O=C(CSc1nnc(CN2CCCC2)n1-c1ccccc1)c1ccc2c(c1)OCO2 | -9% | -16%
O=[N+]([O-])c1cccc(CNCc2ccccc2)c1 | 6% | -18%
Cc1ccc(CNc2ncnc3c2cnn3C2CCCCO2)cc1 (centres undefined) | 0% | 0%
Cc1cc(OC(C)C(=O)Nc2ccc(S(=O)(=O)Nc3onc(C)c3C)cc2)cc(C)c1Cl (centres undefined) | -13% | i
O=C(COc1c(Br)cc(Br)c2cccnc12)Nc1ccccc1F | ? | -19%
NC1=NC(=O)C(=Cc2ccccc2)S1 | -12% | -10%
Cn1c(=O)c2nc(-c3ccccc3)c(-c3ccccc3)nc2n(C)c1=O | -23% | i

Profiles, looked up by structure. Values in the order: VACV Venus inh, VACV mCherry inh
`Cc1cc(OC(C)C(=O)Nc2ccc(S(=O)(=O)Nc3onc(C)c3C)cc2)cc(C)c1Cl` (centres undefined) is listed with -13%, i
`NC1=NC(=O)C(=Cc2ccccc2)S1` is listed with -12%, -10%

Following part.
smiles | VACV Venus inh | VACV mCherry inh
COc1ccc(OC)c(NC(=O)CSc2nnc3ccc4ccccc4n23)c1 | -11% | -12%
CCCn1cc2c(c1-c1ccc(C)cc1)c(=O)n(C)c(=O)n2C | -11% | -13%
CCCNC(=O)Nc1ccc(C)cc1C | -7% | i
COc1ccc(C(=O)COc2ccc(C)cc2NC(C)=O)cc1 | -6%[7.34 µM] | i[7.34 µM]
O=C(NCCC1CCCCN1S(=O)(=O)c1ccc(F)cc1)C(=O)NCC1CCCO1 (centres undefined) | -9% | i
Cc1c(C(=O)OC2CCCCC2)[nH]c2c1C(=O)CC(c1ccccc1Cl)C2 (centres undefined) | ? | -25%
O=C1CCC(C(=O)Nc2nnc(C3CC3)s2)=NN1 | -3% | -5%
COc1cccc(C(=O)N2CCN(Cc3cn[nH]c3-c3ccc(F)cc3F)CC2)c1 | -5% | 1%
CC(=O)N1CCC(C(=O)N2CCN(S(=O)(=O)c3cccs3)CC2)CC1 | -15% | -15%
CC(C)NC(NC(=O)Cc1ccccc1)C(Cl)(Cl)Cl (centres undefined) | -1% | .
Cc1cccc(N=C2NC(=O)C(CO)(CO)S2)c1 | -6% | i
CCC(C)(C)NC(=O)CCCSc1nc2ccccc2s1 | -19% | -22%
Cc1ccc(Cn2ccnc2SCC(=O)NCc2ccccc2)cc1 | -9% | i
CC1CC(C)CN(S(=O)(=O)c2cc3c4c(c2)CCC(=O)N4CCC3)C1 (centres undefined) | -4% | -14%
CCOC(=O)Cc1csc(NC(=O)/C=C\c2ccccc2)n1 | -3% | 0%
CC(C)CC#Cc1ccc2c(c1)O[C@H](CN(C)C(=O)Cc1ccncc1)[C@H](C)CN([C@H](C)CO)S2(=O)=O | ? | -29%
NC(=O)N1c2ccccc2CC(=O)c2ccccc21 | -12%&-4% | i
COc1ccc(C)cc1NC(=O)C(Cc1ccccc1)NS(=O)(=O)c1ccc(Br)s1 (centres undefined) | ? | ?
Cn1nc(C(=O)OCC(=O)c2ccccc2)c2ccccc2c1=O | -6% | -11%
CCOC(=O)c1[nH]c2ccc(OC)cc2c1NC(=O)/C=C/c1ccc2c(c1)OCO2 | -15% | i
COc1ccc(OCC(=O)Nc2ccc(N3CCOCC3)cc2)cc1 | 4% | 2%
FC(F)(F)c1cccc(N2CCc3cn[nH]c32)c1 | -26% | ?
O=C(OCc1cnc(Cl)s1)c1cccc(Cl)c1Cl | -9% | -19%
COc1ccc(Cn2c(C(=O)O)c(CNCC(C)c3ccccc3)c3ccc(OC)cc32)cc1 (centres undefined) | -19% | -12%
Cc1cc(C(=O)O)c(=O)[nH]c1C | -4% | -11%
COc1ccc(S(=O)(=O)NCC(c2ccc3c(c2)OCO3)N2CCOCC2)cc1C (centres undefined) | -12% | -20%
CCOc1ccc(NC(=O)c2ccc3snnc3c2)cc1 | -6%&-7% | -4%
CC(=O)Nc1ccc(S(=O)(=O)Nc2nc3ccccc3nc2N2CCCC2)cc1 | 6% | .
Cc1nn(C)c(C(=O)N/N=C/c2ccncc2)c1Cl | -17% | i
CNC(=O)NCC12CC3CC(CC(C3)C1)C2 | -13% | ?
Cc1ccc(S(=O)(=O)CCC(=O)Nc2cccc(S(=O)(=O)N3CCCCCC3)c2)cc1 | -15% | -27%
O=C(/C=C/c1ccco1)NCC1(c2ccccc2)CCCC1 | -12% | i
CCCCN(C=O)c1c(CC)nc2c(OCCC3CCCCC3)cccn12 | -22% | -14%
COc1ccc(S(=O)(=O)n2nc(-c3ccc(Cl)cc3)cc2N)cc1 | -8%[7.34 µM] | -14%[7.34 µM]
Cc1ccc(NC(=O)Cc2nnc(SCC(=O)NC3=NCCS3)n2C)cc1 | 14% | 14%
COc1cc(C)nc(N2CCCC(C(=O)NCC(C)C)C2)n1 (centres undefined) | -10% | .
CCc1ccccc1NC(=O)Cn1cc(S(=O)(=O)N2CCCC2)c(S(=O)(=O)N2CCCC2)c1 | -2% | -3%
Cc1ccc(CS(=O)(=O)CCC(=O)NCc2ccc3c(c2)OCO3)cc1 | -11% | -14%
Cc1ccc(C)c(CN2C(=O)c3ccccc3Sc3ccc(C(=O)NCCCOC(C)C)cc32)c1 | -19% | -15%
COc1ccc(C(=O)N2CCN(S(=O)(=O)N3CCOCC3)CC2)cc1OC | 1% | .
COc1ccc2cc(CN(Cc3ccco3)C(c3nnnn3C3CCCCC3)C(C)C)c(=O)[nH]c2c1 (centres undefined) | -16% | .
CN(Cc1ccccc1)S(=O)(=O)c1ccc2[nH]cc(C(=O)NCC3CCCO3)c(=O)c2c1 (centres undefined) | ? | -26%
CC(C)CC1C(=O)N(Cc2cn(Cc3ccco3)nn2)CCS(=O)(=O)N1Cc1ccc(-c2ccncc2)cc1 (centres undefined) | -15% | -2%
O=C(Cn1c(O)c(/C=C2\C=Nc3ccccc32)sc1=O)Nc1ccc2c(c1)OCO2 | 0% | -2%
COc1ccc(NC(=O)N(CCO)Cc2cc3c(C)cc(C)cc3[nH]c2=O)cc1 | ? | .
CC(=O)Nc1ccc(S(=O)(=O)NCC(=O)Nc2ccc3c(c2)OCO3)cc1 | -4% | -13%
COc1ccc(-c2cc3nc(C)cc(N4CCN(C(=O)c5cccnc5)CC4)n3n2)cc1 | -17% | -7%
CSc1ccccc1NC(=O)CN1C(=O)C2CC=CCC2C1=O (centres undefined) | -2% | -10%
CN(C(=O)c1ccco1)c1nc(CC(=O)Nc2ccccc2)cs1 | -12% | .
Cc1cc(Cl)ccc1Oc1ncc(CN2CCN(c3ccccc3)CC2)s1 | -9% | -3%
CCCNC(=O)C1(C)CCCN(C(=O)COc2ccc(Cl)cc2Cl)C1 (centres undefined) | -6% | -2%
Cc1cc(NC(=O)CSc2nnc(Cc3ccccc3)o2)no1 | -16% | .
COc1ccccc1NC(=O)C1CCN(S(=O)(=O)c2ccc3c(c2)CC(C)N3C(C)=O)CC1 (centres undefined) | -10% | i
Cc1cccc(-n2cc(CN3CCN(Cc4nccn4C)CC3)c(-c3cccc(F)c3)n2)c1 | -27% | -10%
COC(=O)c1c(NC(=O)CSc2nnnn2-c2ccccc2)sc2c1CCCC2 | 11% | .
CCC1OC(C2CC2)CC2=C1C(=O)OC(C)(C)O2 (centres undefined) | 4% | 21%

Next entries:
smiles | VACV Venus inh | VACV mCherry inh
COc1ccc(N(C(=O)c2cnccn2)C(C(=O)NCc2ccccc2)c2ccc(O)cc2)cc1 (centres undefined) | 0% | -7%
CC(NC(=O)Nc1cccc(Cl)c1)C(c1cccs1)N1CCCC1 (centres undefined) | -21% | -5%
O=C(COC(=O)Cn1cnc2ccccc21)Nc1cc(S(=O)(=O)N2CCOCC2)ccc1Cl | -15% | -3%
CCOc1ccc(N2CC(C(=O)N3CCN(c4ccccn4)CC3)CC2=O)cc1 (centres undefined) | -11% | i
CCCSc1nc2ccsc2c(=O)n1CC | -13% | -1%
CCC1=C(OC(=O)N(CC)CC)N2C(=O)OC(=NCC(=O)OC)[C@]2(Cc2ccccc2)[C@H]2C1=CC[C@H]1C(=O)N(C)C(=O)[C@H]12 | -2% | i
CCOC(=O)C1=CC[C@H]2c3c(c4ccccc4n3C)C(=O)C1N2S(=O)(=O)c1ccc(C)cc1 | -13% | -19%
C=CCOc1c(Br)cc(/C=C2/NC(=S)N(C(C)=O)C2=O)cc1OC | -2% | i

Structures from the list above with a COOH group (four):
smiles | VACV Venus inh | VACV mCherry inh
Cc1ccc(OCC(=O)Nc2ccc(C(=O)O)cc2NC(=O)COc2ccc(C)c(C)c2)cc1C | -5% | i
CC(C)C[C@H](NC(=O)[C@H](Cc1ccccc1)NC(=O)CNC(=O)[C@@H](NC(=O)[C@@H](N)Cc1ccc(O)cc1)[C@H](C)O)C(=O)N[C@H](C(=O)O)[C@H](C)O | -8%[3.33 µM] | 0%[3.33 µM]
COc1ccc(Cn2c(C(=O)O)c(CNCC(C)c3ccccc3)c3ccc(OC)cc32)cc1 (centres undefined) | -19% | -12%
Cc1cc(C(=O)O)c(=O)[nH]c1C | -4% | -11%

Following part:
smiles | VACV Venus inh | VACV mCherry inh
COc1ccc(C2=Nc3ccc(OC(F)(F)F)cc3NC(c3cccnc3)=N2)cc1 | -16% | -20%
COc1ccc(-c2nc(NC(=O)CSCCO)sc2C)cc1 | 3% | i
COc1ccc2cc(CNCc3nonc3C)c(N3CCCC(CO)C3)nc2c1 (centres undefined) | -4% | -12%
NC(=NC(=O)c1ccc(OC(F)(F)F)cc1)c1ccc(C(F)(F)F)cn1 | -9% | -12%
c1ccc(Cn2cc(CNc3ccccc3)nn2)cc1 | -1% | 0%
